Assay outcomes as filed in PubChem.
RecA intein inh: Mtb RecA intein splicing inhibition | P9WHJ3 | cell-free RecA intein splicing, fluorescence | inhibition, %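 (about 9 µM by stock and volumes)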 | 290,000 tested, 0.75% active; in the data active = inhibition above about 30%;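 note: 0% = vehicle wells and 100% = reference inhibitor control wells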
Target sequence (P9WHJ3 whole entry, looked up): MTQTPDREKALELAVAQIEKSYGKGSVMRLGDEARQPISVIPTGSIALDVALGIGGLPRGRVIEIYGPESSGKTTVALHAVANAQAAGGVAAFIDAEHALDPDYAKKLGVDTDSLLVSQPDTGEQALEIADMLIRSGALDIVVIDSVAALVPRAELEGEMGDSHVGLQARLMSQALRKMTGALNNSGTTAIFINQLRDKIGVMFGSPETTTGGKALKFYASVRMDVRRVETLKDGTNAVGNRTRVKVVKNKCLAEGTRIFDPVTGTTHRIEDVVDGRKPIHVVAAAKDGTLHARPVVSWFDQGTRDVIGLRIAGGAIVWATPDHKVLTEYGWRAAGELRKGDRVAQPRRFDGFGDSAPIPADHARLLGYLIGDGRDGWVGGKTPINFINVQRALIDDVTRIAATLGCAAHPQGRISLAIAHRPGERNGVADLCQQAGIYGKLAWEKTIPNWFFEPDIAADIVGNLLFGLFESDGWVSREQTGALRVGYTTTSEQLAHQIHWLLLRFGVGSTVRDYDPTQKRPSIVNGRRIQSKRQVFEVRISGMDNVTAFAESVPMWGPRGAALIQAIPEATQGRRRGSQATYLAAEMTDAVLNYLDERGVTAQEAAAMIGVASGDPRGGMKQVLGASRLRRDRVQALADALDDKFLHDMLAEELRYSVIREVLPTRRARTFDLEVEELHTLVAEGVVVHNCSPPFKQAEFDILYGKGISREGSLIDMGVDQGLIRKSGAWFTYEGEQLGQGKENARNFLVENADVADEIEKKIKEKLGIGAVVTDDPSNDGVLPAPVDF
YopH PTP inh: YopH (Yersinia) phosphatase inhibition; fluorescence Ex485/Em525; inhibition, %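 (about 10 µM by stock and volumes)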; 140,000 tested, 0.16% active;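 active = inhibition of 50% or more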;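 note: controls were vehicle for no effect and minimum signal wells for full effect; inactives centre near -20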
Mtb growth: M. tuberculosis H37Rv growth inhibitors, H37Rv strain (AID 1626); 220,000 tested, 0.95% active; one-dose inhibition, % at 10 µM; IC50 in µM for titrated hits; M. tuberculosis H37Rv growth inhibition; higher % means a stronger effect;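 active = confirmed in a dose series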;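 note: bacteria incubated seven days before Alamar blue readout; 0% = bacteria only wells and 100% = bacteria with antibiotic wells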
Mtb betalactam: beta-lactam sensitization of Mtb H37Rv. 330,000 tested, 0.27% active. inhibition, % at 25 µM. M. tuberculosis H37Rv growth with meropenem, percent inhibition; hits of this screen are not shown here;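 active = about 74% or more and at least 40 points above the plate without the antibiotic, then above 30% in a dose series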;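 note: growth measured after seven days incubation then overnight dye step; 0% = bacteria only wells and 100% = bacteria with antibiotic; twin plates without the antibiotic show which effects depend on it; some results filed as inactive read as strong as hits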
Arbovirus anti: antivirals against arbovirus infection | arbovirus infection cell-based antiviral screen | inhibition, % at 10 µM | 200,000 tested, 0.37% active | AID 1251;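 active = inhibition from about 30%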;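 note: bluetongue infection of BSR cells; cell survival read as ATP light after 72 h; 0% = infected wells without compound and 100% = uninfected wells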
Arbovirus anti repeat: recorded beside Arbovirus anti, whose call it bears; inhibition, %; measured here: 10K subset replicate screen; many hits read low in the repeat;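 first of two repeat runs on a subset; 0% = infected and 100% = uninfected wells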
The depositor's hits bear a star; . = not tested or not shown. This is a subset; the hit share may differ from the screen's.

Preview, 2 compounds:
SMILES | RecA intein inh | YopH PTP inh | Mtb growth | Mtb betalactam | Arbovirus anti | others
O=C(O)C(CCCCN1C(=O)c2ccccc2C1=O)N1C(=O)c2ccccc2C1=O (configuration not stated) | 2.1 | -41 | -6% | -14 | 0
COc1ccc(OC)c(NC(=O)CCN2CCN(Cc3ccccc3)CC2)c1 | -2.3 | -46 | -8% | 1 | 4

This part in full, from the first entry:
SMILES | RecA intein inh | YopH PTP inh | Mtb growth | Mtb betalactam | Arbovirus anti | others
O=C(O)C(CCCCN1C(=O)c2ccccc2C1=O)N1C(=O)c2ccccc2C1=O (configuration not stated) | 2.1 | -41 | -6% | -14 | 0
COc1ccc(OC)c(NC(=O)CCN2CCN(Cc3ccccc3)CC2)c1 | -2.3 | -46 | -8% | 1 | 4
COc1ccc(CCNc2nc(C)cc(=O)[nH]2)cc1OC | -3.2 | -3 | -11% | -6 | .
Cn1c(NC(=O)c2ccc(S(=O)(=O)N3CCCCC3)cc2)cc(=O)n(C)c1=O | -0.1 | -9 | -6% | 8 | 1
Cc1ccsc1/C=C1/SC(N2CCOCC2)=NC1=O | 0.7 | -25 | 66% | 97 | -6
O=C(NCc1ccccn1)C1CCC(=O)N(Cc2ccc(Cl)cc2)C1 (configuration not stated) | 1.4 | . | . | 3 | .
CC(C)c1nnc(NC(=O)c2nc(S(=O)(=O)Cc3ccccc3)ncc2Cl)s1 | 79* | . | . | 5 | .
O=C(CC(c1cccs1)S(=O)(=O)c1ccccc1)c1ccc(F)cc1 (configuration not stated) | -0.7 | -19 | 8% | 11 | -3
CC1CCCN(S(=O)(=O)c2cccc([N+](=O)[O-])c2)C1 (configuration not stated) | -3.0 | . | . | -5 | .
CSC1=N/C(=C\c2ccc(Br)o2)C(=O)S1 | 2.8 | -1 | -3% | -4 | 15
CC1CN(CCC(=O)Nc2ccccc2F)CC(C)O1 (configuration not stated) | 1.6 | . | . | -35 | .
CS(=O)(=O)N1CCc2cc(C(=O)Nc3ccc(Br)cc3)ccc21 | -1.2 | . | . | 0 | .
CCn1cc2nc(SCC(=O)Nc3ccc(F)cc3F)n(Cc3ccccc3)c(=O)c2n1 | 7.9 | . | . | 3 | .
Cc1ccc(NC(=O)CSc2nc3[nH]ncc3c(=O)[nH]2)c(C)c1 | -1.4 | . | -5% | 5 | 0
O=C(c1ccc(CSc2ccc(Cl)cc2)cc1)N1CCOCC1 | -0.9 | . | 9% | 2 | 9

At a glance, some entries already given.
SMILES | RecA intein inh | YopH PTP inh | Mtb growth | Mtb betalactam | Arbovirus anti | others
CC1CN(CCC(=O)Nc2ccccc2F)CC(C)O1 (configuration not stated) | 1.6 | . | . | -35 | .
CS(=O)(=O)N1CCc2cc(C(=O)Nc3ccc(Br)cc3)ccc21 | -1.2 | . | . | 0 | .

Continued.
SMILES | RecA intein inh | YopH PTP inh | Mtb growth | Mtb betalactam | Arbovirus anti | others
Cc1cc(NCCCN(C)C)n2c(nc3ccccc32)c1C#N | -150 | . | . | -6 | .
O=C(COc1ccc(-c2ccccc2)cc1)N/N=C/c1cccnc1 | -1.8 | . | . | 3 | .
CCOc1cc(C=O)ccc1OCCn1c([N+](=O)[O-])cnc1C | -0.3 | . | . | 8 | .
CC1CCCCN1C(=O)CCc1nnc(Cc2c[nH]c3ccccc23)o1 (configuration not stated) | 1.6 | . | 8% | 0 | 2
CCCCOC(=O)c1ccccc1N1C(=O)C2C3CCC(C3)C2C1=O (configuration not stated) | -2.1 | -11 | 2% | -4 | -2
CCOc1ccc(OCC(=O)Nc2nccs2)cc1 | . | . | 50% | 61 | -1
COC(CCN(C)C)(c1ccccc1)c1ccccc1 | -0.7 | -29 | -2% | 9 | 6
Cc1cc(CNC(=O)CC2C(=O)NCCN2Cc2ccc(-c3ccccc3)cc2)nn1C (configuration not stated) | 4.3 | . | -3% | 2 | 1
Cc1ccc[n+](-c2nc([O-])sc2/C=N/Nc2ccc([N+](=O)[O-])cc2)c1 | 0.1 | . | . | -5 | .
CC(NC(=O)c1ccc(Br)o1)C1CC2CCC1C2 (configuration not stated) | 1.0 | . | . | -7 | .
COc1ccc(/C=N/NS(=O)(=O)c2ccc(C)cc2)cc1OC(=O)c1ccc(C)cc1 | -2.1 | -4 | 2% | -11 | 11
CCn1c(SCC(=O)Nc2ccccc2C)nc2nc3c(cc2c1=O)COC(C)(C)C3 | 0.4 | . | 1% | -2 | .
Cc1cccc(NC2=CC(=O)CC(C)(C)C2)c1C | -1.4 | . | -7% | 5 | 1
Cc1ccc2[nH]c3c(NCc4ccco4)ncnc3c2c1 | 5.1 | -47 | 3% | 51 | 0
Cc1cccc(NP(=O)(Oc2ccccc2F)Oc2ccccc2F)c1C | 8.7 | -4 | 1% | 10 | 5
O=C(Nc1nc(-c2ccc(F)cc2)cs1)C1CCCO1 (configuration not stated) | -2.4 | -21 | 17% | 3 | 3
Cn1ccsc1=NC(=O)c1ccccc1OC(F)F | -0.2 | . | . | -8 | .
COc1ccc(C2=NOC(C(=O)Nc3cc(Br)ccc3O)C2)cc1OC (configuration not stated) | -1.4 | -48 | 31% | 0 | -1
O=C(Nc1ccon1)c1csc2ccccc12 | 3.3 | 19 | 6% | 11 | 5
CN1CCN(C(=O)c2ccc(CS(=O)(=O)c3c(Cl)cccc3Cl)o2)CC1 | . | -20 | 3% | 6 | 0 | Arbovirus anti repeat=-1
Cc1ccc(S(=O)(=O)N2CCC(N3CCCCCC3)CC2)cc1 | -2.2 | -16 | -7% | -16 | -6
Cn1c(SCC(=O)NCc2ccccc2)nc2ccccc21 | 1.7 | -27 | . | -3 | 6
O=C(CSc1n[nH]c(-c2cccs2)n1)N1CCCc2ccccc21 | -0.2 | -43 | 1% | . | 3
CCN(CC(=O)Nc1cc(Cl)ccc1C)c1ncnc2sc(C)c(C)c12 | 0.8 | -31 | 8% | 11 | 3
NC(=O)CSc1nc2c(sc3ccccc32)c(=O)n1CCCC(=O)NCC1CCCO1 (configuration not stated) | -0.3 | . | -2% | -7 | .
Cn1cc(C2CC(c3ccccc3)=NN2C(=O)c2ccccc2)c2ccccc21 (configuration not stated) | 2.0 | -22 | 5% | 2 | -23
CCOC(=O)c1ccc(NCc2nc3ccccc3[nH]2)cc1 | 1.8 | -6 | 44µM* | -4 | 1 | Arbovirus anti repeat=8
Cn1c(CNC(=O)Nc2ccccc2Cl)nnc1SCc1ccccc1 | . | -17 | -2% | -3 | 0
Nc1ccccc1Sc1ccc(C(=O)c2ccccc2C(=O)O)cc1[N+](=O)[O-] | -2.5 | . | -12% | -2 | .
COc1cc(O)c(C(CCN2CCOCC2)c2ccc3c(c2)OCO3)c(OC)c1 (configuration not stated) | -3.0 | . | -11% | -7 | .
COc1ccc(NC(=O)C2CCC(=O)N2C(=O)OCc2ccccc2)cc1 (configuration not stated) | 0.2 | . | . | -4 | .
Cc1cc(C)cc(C(=O)N/N=C/c2ccoc2)c1 | 1.7 | . | . | -13 | .
Cc1ccc2nc3c(cc2c1)CC1(C(=O)N(C)C(=O)N(C)C1=O)C1CCCCN31 (configuration not stated) | -1.7 | -39 | 2% | 6 | 1
CCC1=Nc2cc(C(=O)NCC3CCCO3)ccc2Sc2ccc(Br)cc21 (configuration not stated) | 6.6 | . | 8% | 1 | -11
COc1cccc(C=Nc2ccc3c(c2)CCC3)c1O | -0.5 | . | . | 77 | .
O=C1C2C3C=CC(CC3)C2C(=O)N1c1cccc(C(F)(F)F)c1 (configuration not stated) | -1.1 | . | . | -10 | .
Cc1c(OCC(=O)NC(Cc2ccc(Cl)cc2)C(=O)O)ccc2c3c(c(=O)oc12)CCC3 (configuration not stated) | 0.2 | . | . | -11 | .
O=C(Nc1nc2ccccc2n1CCN1CCOCC1)c1ccccc1 | 2.3 | . | . | 43 | .
O=C(CN1CCc2ccccc21)NC(=O)NC1CCCCC1 | 1.0 | . | 2% | -9 | .
COc1ccc(NS(=O)(=O)c2ccc(N3CCOCC3)c(NC(=O)c3cccc(F)c3)c2)cc1 | 5.6 | -24 | -3% | -2 | -11
C=CCN1c2ccccc2[C@]23C[C@@H](C(=O)OC)N(C(=O)NC4CCCC4)C2=NC(C(=O)OC)=C(C(=O)OC)[C@H]13 | -0.4 | . | -6% | -7 | .
CC1(C)[C@H](C(=O)O)N2C(=O)C[C@H]2S1(=O)=O | -3.1 | . | -14% | 43 | .
Cn1c(OCc2cccnc2)nc2c1c(=O)n(Cc1ccccc1)c(=O)n2C | 1.1 | -17 | 7% | 54 | 9
CSc1cccc(CN2CCCC(CO)(Cc3cccc(Cl)c3)C2)c1 (configuration not stated) | 6.1 | . | 0% | 3 | -12
Cc1cc(NC(=O)c2ccc(Br)c(S(=O)(=O)N3CCCC3)c2)no1 | -0.9 | -31 | -6% | 0 | 2

An excerpt from above in order of heavy-atom count, largest number first.
SMILES | RecA intein inh | YopH PTP inh | Mtb growth | Mtb betalactam | Arbovirus anti | others
CS(=O)(=O)N1CCc2cc(C(=O)Nc3ccc(Br)cc3)ccc21 | -1.2 | . | . | 0 | .
CCOC(=O)c1ccc(NCc2nc3ccccc3[nH]2)cc1 | 1.8 | -6 | 44µM* | -4 | 1 | Arbovirus anti repeat=8
Cn1ccsc1=NC(=O)c1ccccc1OC(F)F | -0.2 | . | . | -8 | .

Further structures follow:
SMILES | RecA intein inh | YopH PTP inh | Mtb growth | Mtb betalactam | Arbovirus anti | others
COCCCNCCCCSc1ccc(Cl)cc1 | 3.0 | -21 | -3% | 6 | -14
CC(C)(C)OC(=O)N[C@@H](Cc1ccccc1)C(=O)N1CCC(C(=O)N[C@@H](Cc2c[nH]c3ccccc23)C(=O)O)CC1 | -0.1 | . | . | 2 | .
COc1ccc(NC(C)=[N+](C)CCNS(=O)(=O)c2ccc(Cl)cc2)cc1Cl | 0.9 | . | . | 83 | .
CC(C)c1ccc(CCNC(=O)CSC(=S)N2CCCC2)cc1 | -0.2 | . | . | -1 | .
COc1ccc(-n2nc(C(=O)NCC(=O)N3CC(C)CC(C)C3)c3ccccc3c2=O)cc1OC (configuration not stated) | 0.0 | . | . | 3 | .
Cc1ccccc1S(=O)(=O)c1c(C)cc(C)n(C(C)C)c1=O | 4.5 | -38 | 8% | -5 | 8
CCC(C(=O)NC1CCCC1)N(Cc1ccccc1Cl)C(=O)c1snc(C(N)=O)c1N (configuration not stated) | -3.5 | . | . | -2 | .
CCn1cc(C(=O)O)c(=O)c2cc(F)c(N3CCN(C(=S)NC(=O)c4ccc(OC)cc4)CC3)cc21 | -1.8 | . | . | 34 | .
CCCCN(CCCC)S(=O)(=O)c1ccc(SCC(=O)OCC)c([N+](=O)[O-])c1 | 7.3 | -6 | 8% | 4 | -5
O=c1[nH][nH]cc1C=Nc1cc(Cl)ccc1O | 5.2 | . | 6% | 5 | -5
CCC(=O)N1N=C(c2ccc(C)o2)CC1c1ccc(Br)cc1 (configuration not stated) | 1.4 | -1 | 6% | -2 | 9
COc1ccc(N(CC(=O)N2CCN(c3ccc(F)cc3)CC2)S(=O)(=O)c2c(C)n[nH]c2C)cc1 | 0.2 | . | 2% | 4 | 6
Cc1noc(NS(=O)(=O)c2ccc(N3CC(O)=C(c4ccccc4)C3=N)cc2)c1C | -2.3 | -28 | -3% | 4 | 8
Cc1ccc(-c2cc(C(=O)N3CCN(C(=O)c4ccco4)CC3)[nH]n2)c(C)c1 | -1.8 | . | . | 2 | .
O=C(COc1ccc(Cl)cc1Br)Nc1ccncc1 | 3.6 | . | . | 5 | .
Cc1ccc(C(c2c(C)n(C)n(-c3ccccc3)c2=O)c2c(C)n(C)n(-c3ccccc3)c2=O)s1 | 1.9 | . | 0% | 3 | -29
CC(C)C(C(=O)C=[N+]=[N-])N1C(=O)c2ccccc2C1=O (configuration not stated) | 1.6 | -35 | -3% | -1 | 7
O=C(Nc1sc2c(c1C(=O)O)CCC2)c1cccc(Cl)c1 | -1.9 | . | . | 3 | .
Cc1cc(C)c(-c2c(O)c3cccnc3n(C)c2=O)c(C)c1 | 0.9 | . | . | 0 | .
CCOC(=O)c1c(NC(=O)C2CC2)sc2c1CC(C)(C)OC2 | -1.9 | . | 7% | -3 | .
CCC(Oc1cccc(C)c1)C(=O)Nc1ccccc1C(=O)N1CCOCC1 (configuration not stated) | 17 | . | . | -2 | .
CC(=O)c1cccc(NC(=O)c2ccc(-c3ccccc3[N+](=O)[O-])o2)c1 | -0.9 | -13 | -2% | 0 | -7
NC(=O)c1ccc(-c2nnc(Nc3ccc(S(N)(=O)=O)cc3)c3ccccc23)cc1 | 1.0 | . | . | -4 | .
Cc1ccsc1C(=O)NNC(=O)C1C2C=CC(C2)C1C(=O)O (configuration not stated) | . | -33 | -5% | -7 | 3
Cc1nc(SC(C(=O)c2ccccc2)c2ccccc2)n[nH]1 (configuration not stated) | -0.7 | -7 | 1% | -2 | -6
COc1ccc(CCNC(=O)CCCN2C(=O)C(c3ccccc3)Oc3cccnc32)cc1OC (configuration not stated) | 1.0 | . | . | 2 | .
C=CCNC(=O)/C(=C\C=C\c1ccccc1)NC(=O)c1ccccc1Cl | 1.2 | -2 | 13% | -8 | -8
CC(=O)c1ccc(N(C)C)c2c(N(C)C)cccc12 | -3.4 | 1 | -8% | -1 | 1
